From PubChem
BJeLR lethal: kills HRASV12-expressing BJeLR cells. BJeLR (HRASV12) viability, CellTiter-Glo ATP luminescence, 48 h; reference of the scale not given here. inhibition, % (no concentration beside the values). actives 0.17% (n = 300,000). AID 1554;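 active = replicate mean above 50%; inconclusive = above 50% but judged a plate artefact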;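 also: 50 nL library stock added to about 25 µL; numbers are from one replicate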
Mtb hypoxia inh: reduces hypoxia-regulated biosensor signal in M. tuberculosis. M. tuberculosis hypoxia-regulated fluorescent reporter, fluorescence. AID 1159583. actives 0.1% (n = 300,000). fluorescence inhibition, % (test concentration not listed);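 active = 35 to 45% if threefold the growth effect, above 45% if 1.5-fold the growth effect; inactive = the rest, general growth blockers included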;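 also: wells of about 50 µL received 100 nL stock; 0% = vehicle wells and 100% = reference inhibitor wells; whole bacteria with a GFP reporter of the hypoxia response; strong numbers were not always called active; many hits fall short of the cut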
Sa ugtP lethal: compounds lethal to S. aureus RN4220 ugtP deletion mutant; actives 0.54% (n = 330,000); AID 1259309; growth inhibition, % (concentration not given with the values); OD600 growth, 16 h; some inactives read as strong as hits;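 active = z-score under -3 and OD600 up to 0.15 on both plates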;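 also: plate controls were untreated wells for no effect and antibiotic for full effect; wells of about 80 µL received 100 nL stock; the first replicate is given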
RN4220 kill: S. aureus RN4220 growth inhibition. OD600, 16 h. inhibition, % (test concentration not listed). actives 0.33% (n = 330,000);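 active = z-score of -3 or lower and OD600 up to 0.18 on both plates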;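 also: plate controls were untreated cells for no effect and reference antibiotic for full effect; stock transfer was 100 nL into about 80 µL; one replicate is shown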
Autofluor counter: compound fluorescence in toxin protease inhibitor counterscreen | fluorescence intensity (concentration not given with the values) | actives 3.1% (n = 360,000) | compound autofluorescence counterscreen, microsphere flow cytometry; stronger effect = higher value | AID 624483;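 active = at least 3 SD above the mean of all compounds, about 16000 in these data; inconclusive = too few beads counted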;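 also: 100 nL of 1 mM stock went into each well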
PrP UTR inh: suppresses PrP 5' UTR mRNA reporter expression; actives 0.35% (n = 340,000); AID 488862; cell-based PrP 5' UTR mRNA reporter, plate reader; inhibition, % (test concentration not listed);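 active = every replicate at 50% or more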;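 also: 0 = median of the neutral control wells; tested in H4 reporter cells; numbers are from one replicate; inactives centre near -14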
Mtb hypoxia inh growth: also measured in Mtb hypoxia inh; calls as there; growth inhibition, %; measured here: M. tuberculosis growth (absorbance);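 0% = vehicle and 100% = reference antibiotic; read after six days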
Starred values were filed as active, the others as inactive; ? = inconclusive; . = not tested or not shown; & = joins results of further samples.

Results follow in this order: BJeLR lethal, Mtb hypoxia inh, Mtb hypoxia inh growth, Sa ugtP lethal, RN4220 kill, Autofluor counter, PrP UTR inh
Nc1nonc1-n1nnc(C(=O)N/N=C/c2cccc(Cl)c2)c1-c1ccc2c(c1)OCO2
  -8, ., ., ., ., 4922, 5
COc1ccc(N(C)S(=O)(=O)c2cccc(C(=O)Nc3ccc(OC)nc3)c2)cc1
  -14, -4, -1, 6, 1.6, ., .
O=C(OCC(=O)c1c[nH]c2ccccc12)c1cncc(Br)c1
  ., 5, 3, 3, 3.8, 4518, -10
COc1cc(C(=O)NC(=S)Nc2ccccc2N2CCOCC2)cc(OC)c1OC
  -9, -10, 8, -3, 2.3, 5484, -14
COc1ccc(NC(=S)N/N=C2/CCCc3c(C)cc(C)cc32)cc1
  11, ., ., ., ., 2980, -30
CSCCC(C(=O)OCC(=O)c1ccc(C)c(C)c1)N1C(=O)c2ccccc2C1=O (stereo not given)
  0, 7, 6, 8, 11, 2556, -20
C/C(=N/NC(=O)CN1CCN(S(=O)(=O)c2ccc(Br)cc2)CC1)c1cccnc1
  4, ., ., ., ., 2425, 5
CC1(C)Cc2cccc(OCC(=O)NCc3ccc(F)cc3)c2O1
  ., 5, -3, 8, 2.4, ?, -10
CC(Oc1cc2oc(=O)c3c(c2cc1Cl)CCCC3)C(=O)NCc1cccnc1 (stereo not given)
  1, -8, 8, -4, 0.4, 5613, 2
O=C(NCCCN1CCCC1)c1cc2c(Cl)nc3ccccc3c2s1
  1, 8, 10, 4, -2.8, 3260, 1
CCC(C)N1C(=O)S/C(=C/c2ccc3c(c2)n(C)c(=O)n3C)C1=O (stereo not given)
  -2, 3, 9, -4, 3.4, 3885, -17
COC(=O)C(C)n1cnc2c(nnn2Cc2ccc(Cl)cc2)c1=O (stereo not given)
  4, -2, -1, 1, -1.7, 10270, 4
Cc1ccc(C=NNC(=O)c2ccc3c(c2)OCO3)o1
  ., -11, -7, 12, 1.7, ., .
C=CCC[C@@H](Cc1ccc(F)cc1)C(=O)OC[C@@H](Cc1ccccc1)NC(=O)[C@H](CC=C)CC(=O)NCCO
  ., -4, -1, -17, -1.3, 3183, -9
CCc1ccc(C(=O)CSc2nc3ccccc3c(=O)[nH]2)cc1
  -8, 0, 8, -7, 5.0, 21509*, -3
COc1ccc(CNC(=O)N2CCN(c3ccccc3OC)CC2)cc1
  0, -2, 8, 12, -0.5, 3740, -19
Cc1ccc(S(=O)(=O)N2CCN(c3cnn(-c4ccccc4)c(=O)c3Cl)CC2)cc1
  4, 5, -3, 5, 2.3, 10767, -10
NNc1nc(-c2ccccc2Cl)c2cc(Br)ccc2n1
  2, 2, 1, 23, 8.3, 2794, -17
CCOP(=O)(OCC)C(NC(=O)Cc1ccccc1)C(Cl)(Cl)Cl (stereo not given)
  4, 9, 5, 0, 2.3, 4191, -70
CC(C)(C)C(=O)[C@@H]1[C@@H]2C(=O)N(c3ccc4c(c3)OCCO4)C(=O)[C@@H]2C2c3ccccc3C=CN21 (stereo not given in full)
  2, ., ., 2, -3.4, 2535, -13
Nc1cc[n+](CC(=O)c2ccccc2)cc1
  0, 7, -9, 4, 2.6, ., -17
COC(=O)c1ccc(NC(=O)CCN2CCCCC2)cc1
  -5&2, -6, -10, -5&2, -0.8&3.0, 5928&2967, -28&-22
CN(C)C(/C=C/Nc1ccc([N+](=O)[O-])cc1)=C(C#N)C#N
  5, 5, 2, 1, 0.2, 3902, -53
C=CCOc1cccc(C2/C(=C(/O)c3ccc(F)cc3)C(=O)C(=O)N2CCN2CCOCC2)c1 (stereo not given)
  19, 4, 9, -1, 2.8, 4569, 2
COc1cccc(NC(=O)CN(C)C(C)C(=O)Nc2ccc(S(=O)(=O)N3CCOCC3)cc2)c1 (stereo not given)
  1, 3, 0, 7, 0.1, 4484, -9
COCC(=O)N/N=C/c1ccc(Sc2nc3ccccc3s2)o1
  -16, ., ., ., ., 9278, -24
CC(C)(C)OC(=O)N1CCC(C(=O)NC(Cc2ccccc2)C(=O)O)CC1 (stereo not given)
  ., 6&-11, 6&-5, 5&0, 2.1&2.4, ., .
COC(=O)c1cc(Br)c(=O)n(Cc2ccncc2)c1
  2, 3, 2, 5, 1.0, 2515, -11
CCCc1cc(=O)oc2cc(OCC(=O)N3CCc4ccccc43)ccc12
  -10, -2, 1, 1, -1.8, 3163, 5
CC(C(=O)N(C)c1ccccc1)N1CCN(C(=O)c2ccccc2)CC1 (stereo not given)
  -11, 3, 17, 4, 1.4, 3721, -7
CC(C)NC(=O)C(=O)NCCN1CCN(S(=O)(=O)c2ccc(Cl)cc2)CC1
  0, 3, 5, 2, 6.6, 10643, -31
Cc1nn(C)c(C(=O)N2CCc3ccccc32)c1Cl
  7, 8, 13, -1, 5.0, 21851*, -16
Cc1cccc(CN2CCCC(C(=O)c3cccc(OC(C)C)c3)C2)n1 (stereo not given)
  -10, -4, -1, 8, 0.2, 2698, -7
Cc1nc2ccc(NS(=O)(=O)c3ccc(Br)cc3)cc2s1
  ., -3, 8, -15, 11, 3857, 2
Cc1cccc(C)c1-n1c(C)cc(/C=C2\NC(=O)NC2=O)c1C
  -4, 4, 10, -5, 8.1, 7199, 4
Cn1cc(Br)c(C(=O)NN=Cc2cc3ccccc3nc2Cl)n1
  ., -4, 11, -3, 7.8, ., .
CCOC(=O)c1sc(NC(=O)c2ccc(S(=O)(=O)N(C)C)cc2)cc1C
  7, 15, 9, 9, -1.6, 9890, -22
COc1ccccc1Oc1c(C)oc2c(CN3CCOCC3)c(O)ccc2c1=O
  9, 0, 7, 13, 1.1, ., -14
CC(=O)OCCNc1cc(SCc2ccco2)c2nonc2c1[N+](=O)[O-]
  -18, -4, 13, -16, 8.4, 1969, -3
FC(F)(F)c1nnc2c(Sc3ccccc3)nc3ccccc3n12
  -14, -5, 9, -7, 6.4, 5577, -53
COc1ccccc1CCNC(=O)C(=O)NCC1OCCN1S(=O)(=O)c1ccc(F)cc1 (stereo not given)
  0, ., ., ., ., 5679, -34
CN(C(=O)CC(NC(=O)c1ccccc1)(c1ccccc1)c1ccccc1)c1ccccc1
  -6, 6, 7, -7, -5.9, 3706, -12
CSC(=S)N/N=C(\C)c1ccc(Br)cc1
  -2, ., ., ., ., 4220, -13
O=C(NCc1ccccc1)c1cccc(NC(=O)c2ccco2)c1
  -2, 2, 7, 0, 0.2, 3200, -9
O=C(c1ccccc1)N(CCN1CCOCC1)C1(C(=O)Nc2ccccc2)CCCCC1
  -3, 10, 4, 11, 3.8, 2408, 3
Cc1nc(-c2ccccc2OC(F)(F)F)[nH]c(=O)c1Cl
  -3, 15, 1, 14, 3.3, 4723, 3
C=CCn1c(SCc2csc(C)n2)nc2sc3c(c2c1=O)CCCCC3
  6, -5, 1, 60, -4.1, 21298*, -29
COc1cc(NC(=O)C2=COCCO2)c(OC)cc1Cl
  1, 0, 13, -1, -0.8, 4938, -13
COc1ccc(CC2CN3C(=NCC3Cc3ccc(O)cc3)N2CC(C)NC(=O)c2ccc(C)c(Br)c2)cc1 (stereo not given)
  ., ., ., -44, 27, ., .
Cc1noc(C)c1S(=O)(=O)N(C)C[C@H]1Oc2ccc(NC(=O)Cn3cnnn3)cc2C(=O)N([C@H](C)CO)C[C@@H]1C
  ., 2, 3, -8, -16, 3685, -18
CC(=O)Nc1ccc(NC(=O)c2ccccc2N(C)S(C)(=O)=O)cc1
  -11, 5, 12, -1, -2.2, 24126*, -11
COc1ccc(NC(=O)c2ccc(OC(F)F)cc2)cc1Cl
  -2, 14, 8, -1, 3.9, 2027, -120
Cc1nc2ccccc2cc1C(=O)N/N=C/c1ccc([N+](=O)[O-])cc1
  -1, ., ., ., ., 10384, 12
Cc1ccc(C(=O)C(C)OC(=O)CCS(=O)(=O)c2ccc(C)cc2)cc1 (stereo not given)
  ., 2, -7, 7, 7.1, 2796, -7
O=C(Nc1ccccc1)N1C2CCC1CC(O)(c1cccnc1)C2 (stereo not given)
  6, ., ., 5, 5.9, 3316, -24
COC(=O)c1nnn(-c2ccccc2)c1N
  -1, 0, 5, -1, 6.1, 8902, -1
CCOc1ccccc1-c1ccc(C(=O)NCc2ccccc2)o1
  -6, 11, 10, -4, -0.9, 4794, -27
Cc1ccc2[nH]c(=O)c(C3=NN(C(=O)CCC(=O)O)C(c4cccs4)C3)c(-c3ccccc3)c2c1 (stereo not given)
  21, -11, 2, -5, -3.5, 2389, -10
CCCCNC(=O)c1cc2c(C)cc(C)cc2[nH]1
  -6, 10, 14, -4, 2.4, 6359, -21
Cc1ccc(SCC(=O)OCc2csc(CC(=O)Nc3ccccc3C)n2)cc1C
  ., 8, 8, 10, 5.8, 3166, -19

The list goes on.
Results follow in this order: BJeLR lethal, Mtb hypoxia inh, Mtb hypoxia inh growth, Sa ugtP lethal, RN4220 kill, Autofluor counter, PrP UTR inh
CCN(CC)S(=O)(=O)c1cccc(C(=O)Nc2cc(C)nn2-c2ccccc2)c1
  -10, 8, -5, 2, 2.8, 9544, -16
O=C(CNC(=O)c1ccc([N+](=O)[O-])cc1)N/N=C/c1c[nH]c2ccccc12
  -6, ., ., ., ., 5694, -31
Cc1cccc(C)c1OCC(=O)Nc1ccc(N2CCOCC2)cc1
  13, 15, 0, 11, 18, 4533, 53
CN1CCN(C(=O)Cn2c(C(F)(F)F)nc3ccccc32)CC1
  6, 2, 7, 3, 2.1, 4042, -139
Cc1ccc(NC(=O)C(C)N2C(=O)C3CC=C(Cl)CC3C2=O)cc1 (stereo not given)
  1, ., ., -3, 5.0, 6424, -13
O=C(O)C1CC=CCC1C(=O)Nc1ccc(Oc2ccc(Cl)cc2)cc1 (stereo not given)
  -11, 10, 7, 6, 7.7, 2316, -7
C[C@@]12C(=O)N(c3ccc(Br)cc3)C(=O)N1[C@@H]1c3ccccc3OC[C@@H]1[C@H]2c1ccccc1
  ., 3, 10, -6, -10, 3617, -21
CCC(=O)n1nc(-c2ccccc2)nc1NCc1ccccc1
  -7, -12, 10, -2, -3.3, 6078, -14
Cc1ccc(C(C)C)c(OCC(=O)N2CCN(Cc3nc4cc([N+](=O)[O-])ccc4n3C)CC2)c1
  1, 4, 2, -5, 1.8, 2602, -15
COc1ccc(C(CCN2CCCCC2)c2c(O)cc(OC)cc2OC)cc1 (stereo not given)
  -8, 9, 16, -2, 2.0, 3945, -19
CCOCC(=O)Nc1cc(C(=O)Nc2cccc(C)c2C)ccc1Cl
  6, 2, 0, -3, 2.8, 7285, -1
COc1ccc(C(=O)NC(C)c2ccc(-n3ccnc3)cc2)cc1[N+](=O)[O-] (stereo not given)
  -1, 3, -1, -2, 6.5, 3574, -17
Cc1c(NC(=O)C(C)Sc2ccccc2)c(=O)n(-c2ccccc2)n1C (stereo not given)
  9, ., ., 1, -0.6, 2316, -18
Cc1ccc(NC(=O)COc2ccccc2C(=O)NCc2ccccc2)cc1
  ., 17, 8, -5, 13, 3844, -12
COc1ccc(CN2CCS(=O)(=O)CC2)cc1OC
  -17, 8, 4, 10, 2.5, 4521, -5

Brought forward from above: three compounds, followed by the next part.
Results follow in this order: BJeLR lethal, Mtb hypoxia inh, Mtb hypoxia inh growth, Sa ugtP lethal, RN4220 kill, Autofluor counter, PrP UTR inh
Cc1c(NC(=O)C(C)Sc2ccccc2)c(=O)n(-c2ccccc2)n1C (stereo not given)
  9, ., ., 1, -0.6, 2316, -18
Cc1ccc(NC(=O)COc2ccccc2C(=O)NCc2ccccc2)cc1
  ., 17, 8, -5, 13, 3844, -12
COc1ccc(CN2CCS(=O)(=O)CC2)cc1OC
  -17, 8, 4, 10, 2.5, 4521, -5
O=C(NCc1ccco1)c1ccccc1-c1ccc(C(F)(F)F)cc1
  -5, ., ., 0, 1.4, 4519, 1
O=C1CSC(=NN=Cc2ccccc2)N1Cc1ccco1
  ., 16, -1, 10, 5.6, ., .
O=C(NCCCO)C(=O)NCCc1ccc(Cl)cc1
  2, 8, 0, 2, 2.7, 8917, -11
O=C1OC(c2ccc(F)cc2)=C/C1=C\c1ccc(O)cc1
  12, 15, 9, -9, -3.1, 3769, -13
Cc1cc(C(=O)N/N=C/c2ccc(O)c([N+](=O)[O-])c2)n[nH]1
  1, ., ., ., ., 2511, -15
Nc1ccc(-c2ccc(N)c(C(=O)O)c2)cc1C(=O)O
  -4, 4, 2, 2, 4.8, 4513, -3
COc1ccc(C2N(C(=O)c3ccccc3)CCN2C(=O)c2ccc(C)cc2)cc1 (stereo not given)
  -5, 1, -2, 7, 0.8, 8290, -16
CCOC(=O)C1=C(COC(=O)CCS(=O)(=O)c2ccc(C)cc2)NC(=O)NC1C (stereo not given)
  ., -1, 1, 7, 4.4, 4372, -1
